Screening results: PubChem, Broad Institute
YB-1 expr inh: inhibitors of YB-1 gene expression, primary screen, cell-based, fluorescence; U2OS, qRT-PCR YB-1 vs CDIP delta delta Cp, 16 h; active compounds read high; zero = DMSO, each unit about twofold; delta delta Cp (YB-1 minus CDIP) (test concentration not listed); 0.37% of 30,000 active; AID 434959, 2010;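 active = delta delta Cp rounded down to an integer at or above 3, about 3 SD of DMSO wells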;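 also: higher means less YB-1 transcript or more CDIP transcript relative to DMSO; stock transfer was 100 nL into about 100 µL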
An asterisk follows results filed as active. The list is partial, so the mix of outcomes need not match the whole.

SMILES	YB-1 expr inh
O=C(NO)c1ccc(C(=O)N/N=C/c2cccnc2Cl)cc1	-0.25
C[C@H]1CN([C@@H](C)CO)C(=O)CCCn2nncc2CO[C@H]1CN(C)Cc1cccnc1	0.16
O=C1O[C@@H](c2ccccc2)[C@@H](c2ccccc2)N2[C@@H](c3ccc(OCCO)cc3)[C@]3(C(=O)Nc4ccc(C#CCCO)cc43)[C@@H](C(=O)O)[C@H]12	0.37
C[C@H]1CN([C@@H](C)CO)C(=O)CCCn2cc(nn2)CO[C@H]1CN(C)C(=O)c1ccncc1	0.12
COc1ccc(S(=O)(=O)N(C)C[C@@H]2OCc3cnnn3CCCC(=O)N([C@@H](C)CO)C[C@H]2C)cc1	0.099
C[C@H]1CN([C@@H](C)CO)C(=O)CCCn2cc(nn2)CO[C@H]1CN(C)C(=O)Cc1ccccc1	-0.48
COC(=O)CCCCCCC(=O)N/N=C/c1ccc(OC)c(O)c1	-0.094
NC(=O)COc1ccccc1/C=N/NC(=O)c1ccccn1	0.021
CC(C)(C)OC(=O)CC[C@]12N=C(c3ccc(OCCCO)cc3)O[C@H]1c1ccccc1CN(Cc1ccccc1)C2=O	-0.058
C[C@H](CO)N1C[C@H](C)[C@H](CN(C)S(=O)(=O)c2cccc(F)c2)Oc2ncc(C#Cc3cccc(F)c3)cc2C1=O	-0.2
CCCCCCC/C=N/NC(=O)CCCCCC(=O)O	-0.022
C[C@H]1CN([C@@H](C)CO)C(=O)CCCn2cc(nn2)CO[C@H]1CN(C)S(=O)(=O)c1ccc(-c2ccccc2)cc1	0.2
CC(C)(C)OC(=O)Nc1ccc(/C=N/NC(=O)c2cccc(C(=O)NO)c2)cc1	-0.55
COc1ccc(C#Cc2ccc3c(c2)[C@]2(C(=O)N3)[C@H](C(=O)N3CCCCCCC3)[C@H]3C(=O)O[C@H](c4ccccc4)[C@H](c4ccccc4)N3[C@@H]2c2ccc(O)cc2)cc1	-0.21
C[C@@H]1CN([C@@H](C)CO)C(=O)CCCn2nncc2CO[C@@H]1CN(C)Cc1ccc(C(=O)O)cc1	0.033
O=C(CCCCCCC(=O)Nc1ccccc1O)N/N=C/c1cc(Br)cc(Br)c1O	0.16
C[C@H](CO)N1C[C@H](C)[C@H](CN(C)C(=O)Nc2ccc(F)cc2)Oc2ncc(-c3ccc(F)cc3)cc2C1=O	-0.17
O=C(N/N=C/c1cc(O)ccc1[N+](=O)[O-])c1ccccc1O	0.12
CC(C)(C)OC(=O)Nc1ccc(/C=N/NC(=O)c2ccc(C(=O)NO)cc2)cc1	0.041
C[C@@H]1CN([C@H](C)CO)C(=O)CCCn2cc(nn2)CO[C@@H]1CN(C)Cc1cccnc1	-0.19
O=C(NO)c1cccc(C(=O)N/N=C/c2ccc3c(c2)CCO3)c1	-0.42
NCCCCCCNC(=O)[C@H]1C[C@H]2C(=O)N[C@@H](Cc3ccccc3)C(=O)N2[C@H]1c1cccc(OCCO)c1	-0.16
O=C(O)C1=C[C@@H](c2ccc3c(c2)Cc2ccccc2-3)C[C@@H](OCc2ccc(CO)cc2)O1	0.29
COc1ccc(/C=N/NC(=O)c2ccccc2O)c(OC)c1	0.11
O=C(N/N=C/c1c[nH]c2ccccc12)c1ccccc1O	-0.13

Ordered by the number under YB-1 expr inh (falling): some entries from above
SMILES	YB-1 expr inh
O=C(O)C1=C[C@@H](c2ccc3c(c2)Cc2ccccc2-3)C[C@@H](OCc2ccc(CO)cc2)O1	0.29
C[C@H]1CN([C@@H](C)CO)C(=O)CCCn2nncc2CO[C@H]1CN(C)Cc1cccnc1	0.16
COc1ccc(S(=O)(=O)N(C)C[C@@H]2OCc3cnnn3CCCC(=O)N([C@@H](C)CO)C[C@H]2C)cc1	0.099
CCCCCCC/C=N/NC(=O)CCCCCC(=O)O	-0.022
C[C@@H]1CN([C@H](C)CO)C(=O)CCCn2cc(nn2)CO[C@@H]1CN(C)Cc1cccnc1	-0.19
CC(C)(C)OC(=O)Nc1ccc(/C=N/NC(=O)c2cccc(C(=O)NO)c2)cc1	-0.55

The list goes on:
SMILES	YB-1 expr inh
CC(C)COC(=O)N(C)C[C@@H]1OCc2cn(nn2)CCCC(=O)N([C@@H](C)CO)C[C@H]1C	-0.48
O=C(O)[C@]1(Cc2ccccc2)N=C(c2ccc(OCCCO)cc2)O[C@@H]1c1ccccc1	0.17
C[C@H]1CN([C@@H](C)CO)C(=O)c2cc(NC(=O)CCCCCC(=O)Nc3ccccc3N)ccc2O[C@H]1CN(C)C	0.21
O=C1O[C@H](c2ccccc2)[C@H](c2ccccc2)N2[C@H]1[C@@H](C(=O)N1CCCCCCC1)[C@]1(C(=O)Nc3ccccc31)[C@H]2c1ccc(OCCO)cc1	0.44
O=C(NO)c1cccc(C(=O)N/N=C/c2ccncc2Br)c1	-0.17
COc1ccc([C@@H]2C=C(C(=O)O)O[C@H](OCc3ccc(CO)cc3)C2)cc1	0.23
CC(=O)NCCCC[C@@H]1NC(=O)[C@@H]2C[C@H](C(=O)NCc3ccc(F)cc3)[C@H](c3cccc(OCCO)c3)N2C1=O	0.037
C[C@@H]1CN([C@@H](C)CO)C(=O)CCCn2cc(nn2)CO[C@H]1CN(C)Cc1ccc2c(c1)OCO2	0.7
C[C@@H]1CN([C@@H](C)CO)C(=O)CCCn2nncc2CO[C@@H]1CN(C)C(=O)c1cc(-c2ccccc2)on1	-0.23
C[C@H](CO)N1C[C@H](C)[C@H](CN(C)Cc2cccnc2)OCc2cnnn2CCCC1=O	0.02
O=C(CCCCCCC(=O)Nc1ccccc1O)N/N=C/c1ccc(O)cc1	-0.028
COc1ccc(-c2cnc3c(c2)C(=O)N([C@H](C)CO)C[C@H](C)[C@H](CN(C)Cc2ccccc2)O3)cc1	-0.15
C[C@H](CO)N1C[C@H](C)[C@@H](CN(C)Cc2cccc(O)c2)OCc2cn(nn2)CCCC1=O	-0.063
O=C(CCCCCCC(=O)Nc1ccccc1O)N/N=C/c1cc(Br)ccc1O	-0.41
COc1ccc([Si](C)(C)[C@@H]2[C@@H](CCn3cc([C@H](O)c4ccccc4)nn3)O[C@]3(C(=O)N(c4ccccc4)c4ccccc43)[C@H]2C)cc1	0.36
C[C@H]1CN([C@@H](C)CO)C(=O)CCCn2nncc2CO[C@@H]1CN(C)C(=O)CCCN(C)C	0.055
O=C(NCc1ccc(F)cc1)[C@H]1C[C@H]2C(=O)NCC(=O)N2[C@H]1c1cccc(OCCO)c1	-0.31
Cc1ccccc1CN(C)C[C@@H]1OCc2cnnn2CCCC(=O)N([C@H](C)CO)C[C@@H]1C	0.24
CC(C)NC(=O)N(C)C[C@@H]1Oc2ncc(-c3ccccc3)cc2C(=O)N([C@H](C)CO)C[C@@H]1C	-0.39
C[C@@H]1CN([C@@H](C)CO)C(=O)CCCn2cc(nn2)CO[C@@H]1CN(C)C(=O)Nc1ccccc1C(F)(F)F	-0.29
C[C@H](CO)N1C[C@H](C)[C@@H](CN(C)C(=O)Nc2ccccc2)OCc2cnnn2CCCC1=O	0.48
COC(=O)C(CC#Cc1ccc2c(c1)[C@]1(C(=O)N2)[C@H](C(=O)N2CCc3cc(OC)c(OC)cc3C2)[C@H]2C(=O)O[C@H](c3ccccc3)[C@H](c3ccccc3)N2[C@@H]1c1ccc(OCCO)cc1)C(=O)OC	-0.41
C[C@@H]1CN([C@H](C)CO)C(=O)CCCn2nncc2CO[C@H]1CN(C)S(=O)(=O)c1ccc2c(c1)OCCCO2	-0.4
C[C@@H]1CN([C@H](C)CO)C(=O)CCCn2nncc2CO[C@@H]1CN(C)S(=O)(=O)c1ccc(C#N)cc1	0.65
C[C@H]1CN([C@@H](C)CO)C(=O)CCCn2cc(nn2)CO[C@@H]1CN(C)Cc1ccc(C(F)(F)F)cc1	-0.19

Looked up above:
For YB-1 expr inh, O=C1O[C@H](c2ccccc2)[C@H](c2ccccc2)N2[C@H]1[C@@H](C(=O)N1CCCCCCC1)[C@]1(C(=O)Nc3ccccc31)[C@H]2c1ccc(OCCO)cc1 is entered as 0.44
For YB-1 expr inh, COc1ccc([Si](C)(C)[C@@H]2[C@@H](CCn3cc([C@H](O)c4ccccc4)nn3)O[C@]3(C(=O)N(c4ccccc4)c4ccccc43)[C@H]2C)cc1 is entered as 0.36
For YB-1 expr inh, C[C@@H]1CN([C@H](C)CO)C(=O)CCCn2nncc2CO[C@H]1CN(C)S(=O)(=O)c1ccc2c(c1)OCCCO2 is entered as -0.4
For YB-1 expr inh, C[C@@H]1CN([C@H](C)CO)C(=O)CCCn2nncc2CO[C@@H]1CN(C)S(=O)(=O)c1ccc(C#N)cc1 is entered as 0.65
For YB-1 expr inh, O=C(CCCCCCC(=O)Nc1ccccc1O)N/N=C/c1cc(Br)ccc1O is entered as -0.41
For YB-1 expr inh, C[C@H]1CN([C@@H](C)CO)C(=O)c2cc(NC(=O)CCCCCC(=O)Nc3ccccc3N)ccc2O[C@H]1CN(C)C is entered as 0.21

Remaining list, next part.
SMILES	YB-1 expr inh
Cc1nc(S(=O)(=O)N2CCN(Cc3cccc(OCCO)c3)CC2)cn1C	0.62
C[C@H]1CN([C@@H](C)CO)C(=O)CCCn2nncc2CO[C@H]1CN(C)S(=O)(=O)c1ccccc1F	-0.25
CN(C)C(=O)[C@]1(Cc2ccccc2CN=[N+]=[N-])N=C(c2ccc(OCCCO)cc2)O[C@@H]1c1ccccc1	-0.22
Cc1ccsc1/C=N/NC(=O)CCCCCCC(=O)Nc1ccccc1O	-0.54
COc1ccc(C#Cc2ccc3c(c2)[C@]2(C(=O)N3)[C@H](c3ccc(O)cc3)N3[C@H](c4ccccc4)[C@H](c4ccccc4)OC(=O)[C@H]3[C@@H]2C(N)=O)cc1	0.021
C[C@H](CO)N1C[C@H](C)[C@H](CN(C)S(=O)(=O)c2ccccc2)Oc2ncc(C#Cc3ccc(C(F)(F)F)cc3)cc2C1=O	0.34
O=C1O[C@@H](c2ccccc2)[C@@H](c2ccccc2)N2[C@@H](c3ccc(OCCO)cc3)[C@]3(C(=O)Nc4ccc(C#CC5=CCCCC5)cc43)[C@@H](C(=O)NC[C@H](O)c3ccccc3)[C@H]12	0.15
COC(=O)CCCCCCC(=O)N/N=C/c1ccc(C)o1	0.29
COc1ccc(NC(=O)N(C)C[C@@H]2OCc3cn(nn3)CCCC(=O)N([C@@H](C)CO)C[C@H]2C)cc1	-0.16
Cc1ccc(OC(=O)N(C)C[C@H]2OCc3cn(nn3)CCCC(=O)N([C@H](C)CO)C[C@H]2C)cc1	-0.05
CN(C)CCCCNC(=O)[C@@H]1C[C@@H]2C(=O)N[C@@H](CCCCN(C)C)C(=O)N2[C@@H]1c1ccc(O)cc1	0.34
C[C@H](CO)N1C[C@H](C)[C@H](CN(C)S(=O)(=O)c2ccc(C#N)cc2)Oc2ncc(Br)cc2C1=O	-0.096
COc1ccc(CCNC(=O)[C@@]2(Sc3ccc(C)cc3)CC(=O)N(C3CCCCC3)[C@@H]2c2ccc(CO)cc2I)cc1	-0.11
COC(=O)[C@@]1(CCS(=O)(=O)c2ccccc2)COC(c2ccc(OCCCO)cc2)=N1	-0.045
Cc1noc(C)c1NC(=O)N(C)C[C@H]1OCc2cn(nn2)CCCC(=O)N([C@H](C)CO)C[C@H]1C	0.13
C[C@H](CO)N1C[C@H](C)[C@@H](CN(C)Cc2ccc(C(=O)O)cc2)OCc2cn(nn2)CCCC1=O	0.12
CC(C)C[C@@H]1NC(=O)[C@H]2C[C@@H](C(=O)NCc3ccc(F)cc3)[C@@H](c3ccc(O)cc3)N2C1=O	-0.2
C=CCNC(=O)[C@@H]1[C@H]2C(=O)O[C@H](c3ccccc3)[C@H](c3ccccc3)N2[C@H](c2ccccc2OCCO)[C@@]12C(=O)Nc1ccc(C#CC3(O)CCCCCC3)cc12	-0.22
C[C@H](CO)N1C[C@H](C)[C@H](CN(C)C(=O)NC2CCCCC2)Oc2ncc(C#CC(C)(C)O)cc2C1=O	-0.56
CC(C)NC(=O)N(C)C[C@@H]1Oc2ncc(-c3cccc(C(F)(F)F)c3)cc2C(=O)N([C@H](C)CO)C[C@@H]1C	-0.15
O=S(=O)(NCC1CCN(Cc2cccc(OCCO)c2)CC1)c1ccc(Cl)c(Cl)c1	0.4
CC(C)OC(=O)N(C)C[C@H]1OCc2cn(nn2)CCCC(=O)N([C@H](C)CO)C[C@@H]1C	0.36
COCCOC(=O)N1C(=O)[C@@]2(c3cc(C#CCCO)ccc31)[C@H](C(N)=O)[C@H]1C(=O)O[C@H](c3ccccc3)[C@H](c3ccccc3)N1[C@@H]2c1ccccc1OCCO	0.51
COc1ccc([Si](C)(C)[C@@H]2[C@@H](CCO)O[C@]3(C(=O)N4c5c(cc(OC)cc53)C(C)=CC4(C)C)[C@H]2C)cc1	-0.36
COc1cc(Cl)c(/C=N/NC(=O)c2ccc(C(=O)NO)cc2)c(Cl)c1OC	-0.16
(continued)
SMILES	YB-1 expr inh
Cc1ncc(CO)c(/C=N/NC(=O)c2ccccc2O)c1O	-0.083
C[C@@H]1CN([C@H](C)CO)C(=O)CCCn2cc(nn2)CO[C@@H]1CN(C)Cc1ccc(O)cc1	0.0082
CCCC(O)C#Cc1cnc2c(c1)C(=O)N([C@H](C)CO)C[C@H](C)[C@H](CN(C)Cc1cccc(C)c1)O2 (stereo not given in full)	0.054
COc1ccc([Si](C)(C)[C@@H]2[C@@H](CC(=O)N(CCO)Cc3ccccc3)O[C@]3(C(=O)N(C)c4ccccc43)[C@H]2C)cc1	0.16
O=C(N/N=C\c1cccc(O)c1O)c1ccccc1O	0.58
COC(=O)[C@@]1(Cc2ccccc2CN=[N+]=[N-])N=C(c2ccc(OCCCO)cc2)O[C@H]1c1ccccc1CN=[N+]=[N-]	-0.052
C[C@H]1CN([C@@H](C)CO)C(=O)CCCn2nncc2CO[C@@H]1CN(C)S(=O)(=O)c1cccc(F)c1	0.1
COC(=O)[C@@]1(CCS(=O)(=O)c2ccccc2)N=C(c2ccc(OCCCO)cc2)O[C@H]1c1ccccc1N=[N+]=[N-]	-0.25
C[C@H](CO)N1C[C@H](C)[C@H](CN(C)Cc2ccncc2)OCc2cnnn2CCCC1=O	-0.085
C[C@H](CO)N1C[C@H](C)[C@H](CN(C)C(=O)CCCN(C)C)OCc2cnnn2CCCC1=O	0.076
C[C@H]1CN([C@@H](C)CO)C(=O)CCCn2cc(nn2)CO[C@@H]1CN(C)C(=O)Nc1ccccc1F	0.22
COc1cc(Br)cc(/C=N/NC(=O)c2ccc(C(=O)NO)cc2)c1O	-0.41
COC(=O)CCCCCCC(=O)N/N=C/c1ccccc1[N+](=O)[O-]	-0.53
